# GLA inh pH 4.5 = inhibitors of human alpha-galactosidase A at pH 4.5; P06280; purified enzyme, 4-MU-alpha-Gal fluorescence, pH 4.5; activity change, negative = inhibition, % at 105 µM; 230,000 tested, under 10 active; AID 1467; inconclusive = small, poorly fitted or top-dose-only inhibition, or a rising curve; inactive = flat fitted curve, though single readings scatter; no compound was filed as active;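 further: 0% = full activity with enzyme and -100% = basal without enzyme; dose as in the result columns while the protocol names 77 µM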
# Target sequence (P06280 whole entry, looked up): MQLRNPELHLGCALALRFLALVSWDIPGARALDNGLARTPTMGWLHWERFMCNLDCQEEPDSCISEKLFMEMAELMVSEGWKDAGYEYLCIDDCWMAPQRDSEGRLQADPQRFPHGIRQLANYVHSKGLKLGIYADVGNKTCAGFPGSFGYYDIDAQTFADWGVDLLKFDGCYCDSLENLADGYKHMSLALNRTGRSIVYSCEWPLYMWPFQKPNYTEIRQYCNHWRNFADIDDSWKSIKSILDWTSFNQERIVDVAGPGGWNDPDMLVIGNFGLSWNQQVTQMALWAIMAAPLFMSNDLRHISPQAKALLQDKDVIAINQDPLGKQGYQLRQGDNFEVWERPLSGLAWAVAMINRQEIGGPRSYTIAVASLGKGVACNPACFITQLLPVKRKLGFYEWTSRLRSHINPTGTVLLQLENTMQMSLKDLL
# miR-21 FLuc = miR-21 reporter, rising signal; HeLa miR-21 FLuc reporter, luciferase, 48 h; Potency, µM (top dose mostly 38.3 µM), for the others: at the highest dose reporter change, positive = more light; 340,000 tested, under 10 active; AID 2288; active = well fitted rising curve with a large enough effect; inconclusive = small, poorly fitted or top-dose-only effect; inactive = no such curve, though single readings can be large or run the other way;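 further: % of control where 0% means no effect; miR-21 action dims this reporter so a rising signal means less miR-21 action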
#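 Compounds were titrated across several concentrations (up to approximately 40 uM) and incubated 48 hours with HeLa miR-21-FLuc reporter cells (miR-21 target sequence downstream of FLuc, endogenous miR-21). Readout was firefly luciferase luminescence after lytic detection reagent.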
# Rango dissoc inh = inhibition of RanGTP-driven Rango-importin beta dissociation; Biochemical FRET Rango-importin beta, RanGTP-induced dissociation; Potency, µM (highest dose often 46.1 µM), for inactives: at the top dose activity change, negative = inhibition; 0.071% of 340,000 active; active means falling FRET ratio curve, often poorly fitted, with flat reads before Ran was added; inconclusive means other falling curves, or compound fluorescence or quenching; inactive means flat or rising ratio curve;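 further: potency means the concentration at half of the fitted maximal effect; % of control where 0% means no effect; nearly all actives have a fitted effect of over 45% in size; -100% = wells without RanGTP and RCC1; the record marks most hits as doubtful in a second field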
#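 FRET read at 45 min, room temperature: inhibitors block the CFP/YFP signal rise when RanGTP (0.6 uM Ran, 2 mM GTP, 0.2 uM RCC1) frees Rango (0.1 uM) from importin beta (0.25 uM). Pre-read after 5 min compound exposure flags interference.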
# Rango-impB inh = Rango-importin beta binding inhibition; Q14974; Rango CFP/YFP FRET sensor + importin beta, 45 min; Potency, µM (series often up to 92.2 µM), for the others: top-dose inhibition of complex formation; 0.031% of 340,000 active; AID 540263; active = rising FRET ratio curve, often small or poorly fitted; inconclusive = mostly compound fluorescence or quenching in the first reads; inactive = flat curves in all reads;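 further: potency means the concentration at half of the fitted maximal effect; 0% = DMSO wells and 100% = buffer wells lacking importin beta; nearly all actives have a fitted effect of over 15% in size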
#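 FRET biosensor Rango (snurportin 1 IBB between N-terminal EYFP and C-terminal Cerulean), 50 nM in PBS/1 mM DTT/0.02% Tween-20/0.1% BSA, preincubated 5 min RT with compound; 0.125 microM importin beta added, 45 min RT, CFP/YFP FRET ratio read.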
# Starred values were filed as active, the others as inactive; ? = inconclusive; nt = not tested or not shown; & = joins results of further samples; [ ] = dose if it differs, or a comment. Not all compounds are listed, so the mix of outcomes need not match the whole.
no.	mol	GLA inh pH 4.5	miR-21 FLuc
1	CCNC(=S)NNC(=O)c1cc(Br)cs1	4.9	-28.0%
2	C[C@H](CO)N1C[C@H](C)[C@@H](CN(C)Cc2ccc3c(c2)OCO3)Oc2c(NS(=O)(=O)c3cn(C)cn3)cccc2C1=O	nt	nt
3	COc1ccc(NC(=O)c2cccc3c2C(=O)N(CC2CCCO2)C3)cc1OC (stereo unspecified)	nt	-12.8%
4	CCCN1C2CCCC1CC(NC(=S)NCCCOCC)C2 (stereo unspecified)	-3.0	-2.7%
5	S=c1[nH]nc(-c2ccc3ccccc3n2)n1-c1ccccc1Cl	5.5	-25.5%
6	c1cc2c(cc1C1CCCN1)OCCCO2 (stereo unspecified)	2.4	-5.9%
7	CN(C)c1ccc(NC(=O)CSc2nc(C3CC3)nc3ccccc23)cc1	nt	5.3%
8	O=C(Cc1cccc(NC(=O)C2CCN(C(=O)C3CCC3)CC2)c1)Nc1cccc(C(=O)N2CCOCC2)c1	nt	nt

no.	Rango dissoc inh	Rango-impB inh
1	32.9%	6.8%
2	-4.1%	?
3	14.2%	-1.4%
4	-16.1%	0.5%
5	-14.5%	-2.6%
6	-18.9%	-2.1%
7	-3.2%	-0.8%
8	?	-3.4%

# Next section:
no.	mol	GLA inh pH 4.5	miR-21 FLuc
9	COCCNS(=O)(=O)c1ccc2c(c1)Cc1cc(S(=O)(=O)NCCOC)ccc1-2	nt	-3.0%
10	O=C(CSc1cn(CCNC(=O)c2ccc3ccccc3c2)c2ccccc12)NCc1ccco1	-13.2	12.9%
11	CC(C)NC(=O)CC(=O)N/N=C/c1ccccc1F	1.5	-3.8%
12	C=CCN1CCN(C(=O)CSc2ccccc2)CC1	nt	-38.3%
13	COC(=O)c1ccc(CSc2nc3ccccc3c(=O)n2-c2ccc(OC)c(OC)c2)o1	2.4	-4.6%
14	c1ccc(-c2csc3ncnc(-n4cnc5ccccc54)c23)cc1	1.8	-1.9%
15	COc1cccc(NC2=NCCCCC2)c1	nt	-0.7%
16	CCC(C)NC(=O)CNC(=S)N(Cc1ccc(F)cc1)C1CCCCC1 (stereo unspecified)	-26.1	-2.6%

no.	Rango dissoc inh	Rango-impB inh
9	4.7%	-2.5%
10	6.5%	4.0%
11	-2.6%	0.6%
12	16.8%	0.1%
13	-0.1%	-0.6%
14	-14.1%	-0.8%
15	6.4%	-1.9%
16	5.0%	4.7%

# Some of these compounds in order of length of the SMILES, smallest number first:
no.	mol	GLA inh pH 4.5	miR-21 FLuc
14	c1ccc(-c2csc3ncnc(-n4cnc5ccccc54)c23)cc1	1.8	-1.9%
9	COCCNS(=O)(=O)c1ccc2c(c1)Cc1cc(S(=O)(=O)NCCOC)ccc1-2	nt	-3.0%
13	COC(=O)c1ccc(CSc2nc3ccccc3c(=O)n2-c2ccc(OC)c(OC)c2)o1	2.4	-4.6%

no.	Rango dissoc inh	Rango-impB inh
14	-14.1%	-0.8%
9	4.7%	-2.5%
13	-0.1%	-0.6%

# More records
no.	mol	GLA inh pH 4.5	miR-21 FLuc
17	O=C(NCCCn1ccnc1)Nc1ccc(Cl)c(Cl)c1	-1.6	-5.1%
18	CCC(C)(C)n1nnnc1C(c1ccc2ncccc2c1)N1CCCC(C)C1 (stereo unspecified)	-10.1	-7.5%
19	Cc1ccc(S(=O)(=O)N(C)CC(=O)Nc2ccc(C)cn2)cc1	nt	nt
20	COc1ccc(NC(=O)C2CCC(=O)N2)cc1 (stereo unspecified)	2.7	0.1%
21	Cc1ccc2oc(C(=O)N3CCN(Cc4ncccc4C)CC3)c(C)c2c1	nt	-19.9%
22	O=C(CNC(=O)c1ccc(N2CCCC2=O)cc1)Nc1ccc(F)c(F)c1F	nt	nt
23	CCOCCCNC(=O)c1c(C)[nH]c(C(=O)OCC)c1C	-5.4	-9.5%
24	O=C(COc1ccccc1Cl)Nc1ccc(S(=O)(=O)N2CCOCC2)cc1	nt	-3.8%

no.	Rango dissoc inh	Rango-impB inh
17	-8.3%	-0.4%
18	-1.2%	-1.5%
19	-6.8%	-3.9%
20	6.4%	1.6%
21	-3.6%	-0.5%
22	12.4%	1.3%
23	-0.5%	0.5%
24	-12.9%	8.5%

# Remaining list, next part.
no.	mol	GLA inh pH 4.5	miR-21 FLuc
25	C#CCOCCOCCOCCNc1nc(N2CCN(C(=O)Cn3cc(CCCCN)nn3)CC2)nc(N2CCN(C(=O)[C@H](C)n3cc(CCCN=C(N)N)nn3)CC2)n1	-6.1	-2.3%
26	CCOC(=O)c1c(C)[nH]c(C(=O)Nc2ccc(NC(C)=O)cc2)c1C	2.3	19.5%
27	Cc1ccc2c(c1)N(CC(=O)NCCCN1CCCC1)C(=O)CO2	nt	-7.6%
28	COc1ccc(C2=NS(=O)(=O)N(C)C(C(=O)NC3CCCCC3)=C2)cc1OC	nt	2.1%
29	COc1cc(C(=O)NC(=S)NC(C)C)cc(OC)c1OC	1.2	-11.1%
30	Cc1ccc(N=C2NC(=O)CS2)cc1C	nt	-6.1%
31	CCc1ccc([C@@H]2CC=C(C(=O)O)[C@H](c3ccc(F)cc3)N2S(=O)(=O)c2ccc(C)cc2)cc1	nt	nt
32	Cn1nnnc1-c1cc(Cl)cc(Cl)c1	6.8	0.9%

no.	Rango dissoc inh	Rango-impB inh
25	nt	nt
26	-5.7%	-3.9%
27	-6.5%	0.5%
28	?	?
29	0.4%	-1.6%
30	9.4%	-4.2%
31	0.2%	4.3%
32	-4.0%	0.4%

# Next section.
no.	mol	GLA inh pH 4.5	miR-21 FLuc
33	O=c1[nH]c(C2CCN(S(=O)(=O)c3ccc(F)cc3)CC2)nc2c1nnn2Cc1ccc2c(c1)OCCO2	nt	-8.3%
34	COc1cccc(-n2c(Cc3cc(=O)[nH]c(=O)[nH]3)nnc2SCC(=O)N2CCCCCC2)c1	-8.4	0.5%
35	Nc1nnnn1/N=C/c1cc([N+](=O)[O-])ccc1O	-0.6	4.1%
36	CC(=O)Nc1ccc2cc3ccc(NC(C)=O)cc3nc2c1	15.3	-58.0%
37	CCOc1ccccc1C(=O)N1CCN(c2cccc(Cl)c2)CC1	3.0	28.6%
38	COc1cc2c(cc1OC)-c1n[nH]c(=S)n1C(C)(C)C2	-11.9[21.1 µM]	-25.8%
39	Cc1ccc(-c2csc3ncnc(-n4nnc5ccccc54)c23)cc1	-7.1	-18.0%
40	Cc1ccc(C)c(OCC(=O)Nc2ccc(S(=O)(=O)N3CCN(C)CC3)cc2)c1	-9.7	-1.5%

no.	Rango dissoc inh	Rango-impB inh
33	?	?
34	4.3%	-4.1%
35	?	-2.5%
36	?	?
37	?	1.8%
38	2.3%	0.7%
39	-4.7%	2.6%
40	10.8%	1.2%

# (listing goes on)
no.	mol	GLA inh pH 4.5	miR-21 FLuc
41	O=C(Cc1cccs1)NCc1cccc(Cl)c1	nt	-51.3%
42	c1ccc(Cc2ccc(OCCn3cncn3)cc2)cc1	6.3	-3.1%
43	CC(=O)c1cn(CC(=O)NCc2ccc3c(c2)OCO3)c2ccccc12	4.1	6.2%
44	CCC(=O)Nc1ccc2c(c1)ncn2-c1ccc(C)cc1	6.5	-90.6%
45	Cc1ccc(NS(=O)(=O)c2cccc(C(=O)NCC3(N(C)C)CCCCC3)c2)cc1	-4.9	2.0%
46	CCCNC(=O)Cn1c(=O)/c(=C\c2ccc(-c3cccc([N+](=O)[O-])c3)o2)s/c1=C\C(=O)C(C)(C)C	-7.0	-11.2%
47	CCN(CC)CCN(C(=O)c1ccc(S(=O)(=O)N2CCCC2)cc1)c1nc2cc(C)cc(C)c2s1	nt	-0.1%
48	COc1ccc(-c2nc3c(s2)CCc2onc(-c4ccc(Br)cc4)c2-3)cc1	nt	nt

no.	Rango dissoc inh	Rango-impB inh
41	-20.9%	?
42	-6.0%	0.5%
43	-3.3%	0.5%
44	0.4%	-1.9%
45	9.6%	0.1%
46	?	?
47	-12.2%	-0.7%
48	-9.8%	-4.3%

# 2 records drawn at random from the list so far:
no.	mol	GLA inh pH 4.5	miR-21 FLuc
46	CCCNC(=O)Cn1c(=O)/c(=C\c2ccc(-c3cccc([N+](=O)[O-])c3)o2)s/c1=C\C(=O)C(C)(C)C	-7.0	-11.2%
48	COc1ccc(-c2nc3c(s2)CCc2onc(-c4ccc(Br)cc4)c2-3)cc1	nt	nt

no.	Rango dissoc inh	Rango-impB inh
46	?	?
48	-9.8%	-4.3%

# Look-ups from the entries so far:
# Rango-impB inh with entry 44 stands at -1.9%
# Rango-impB inh with entry 47 stands at -0.7%

# (list continues)
no.	mol	GLA inh pH 4.5	miR-21 FLuc
49	Cc1ccc(OCC(=O)N(Cc2ccco2)C2CCS(=O)(=O)C2)cc1 (stereo unspecified)	nt	-4.6%&-6.5%
50	O=C(CCC(=O)Nc1ccc(F)cc1)N/N=C/c1ccncc1	4.6	4.2%
51	CCc1nnc(NC(=O)C2(C)COC(c3ccccc3)OC2)s1 (stereo unspecified)	-9.8	0.6%
52	O=C(Cc1csc(Nc2nc(=S)[nH]c3ccccc23)n1)NCc1ccccc1Cl	5.2	0.1%
53	CCOCCOC(=O)c1ccc(NC(=O)c2cc(OC)c(OC)c(OC)c2Br)cc1	7.5	-8.0%
54	CCOc1ccc(C(C)=O)cc1CN1C(=O)NC2(CCCCC2C)C1=O (stereo unspecified)	-11.2	-1.9%
55	O=C(CSc1ncccn1)Nc1cccc2ccccc12	nt	-21.7%
56	CCC(C(=O)N1CCOCC1)n1c(C(=O)OC)cc2occc21 (stereo unspecified)	0.3	-4.2%

no.	Rango dissoc inh	Rango-impB inh
49	15.7%	-0.4%
50	-7.8%	0.1%
51	7.1%	2.0%
52	-17.1%	?
53	-6.9%	0.4%
54	-3.1%	-1.5%
55	-1.0%	0.2%
56	-6.2%	1.3%

# Next entries:
no.	mol	GLA inh pH 4.5	miR-21 FLuc
57	O=C(COC(=O)CCCOc1ccccc1)NNC(=O)c1ccc([N+](=O)[O-])cc1	nt	-3.1%
58	CCC(C)(C)NC(=O)/C=C/c1ccc(OC)c(S(=O)(=O)N2CCOCC2)c1	8.6	-6.0%
59	CC1CCCC(NC(=O)COC(=O)c2ccc(S(=O)(=O)N3CCOCC3)cc2)C1C (stereo unspecified)	7.0	-3.1%
60	CC(=O)Nc1ccc(S(=O)(=O)N2CCN(Cc3cccnc3)CC2)cc1	7.4	-3.5%
61	CCC(C)(c1ccc(C(=O)OC)s1)c1ccc(C(=O)OC)s1	-8.6	-11.8%
62	COC(=O)Nc1ccc(S(=O)(=O)N(C)CC(F)(F)C(F)F)cc1	1.8	0.5%
63	Cc1ccn2cc(CNS(=O)(=O)c3ccc(Cl)s3)nc2c1	8.8	-14.6%
64	CC1Cc2ccccc2N1C(=O)c1ccc(F)c(S(=O)(=O)N2CCOCC2)c1 (stereo unspecified)	nt	nt

no.	Rango dissoc inh	Rango-impB inh
57	-18.8%	-2.3%
58	-7.2%	?
59	8.5%	-0.2%
60	-8.7%	-3.9%
61	-15.7%	7.5%
62	13.9%	-0.2%
63	?	?
64	-15.2%	-0.8%

# Following part:
no.	mol	GLA inh pH 4.5	miR-21 FLuc
65	CC(C)c1ccc(C(O)c2cnc(C(C)C)n2C)cc1 (stereo unspecified)	-7.1	-9.2%
66	C[C@@H]1CN(S(=O)(=O)C(C)(C)C)[C@@H](CCO)/C1=C\c1ccccc1	nt	nt
67	Cc1cc2cc(CCNC(=O)c3c(-c4ccccc4Cl)noc3C)c(=O)[nH]c2cc1C	4.9	11.6%
68	Cc1cccc(NC(=O)C2C3CCCCC32)c1 (stereo unspecified)	nt	-55.1%
69	COC(=O)C1=C(C)N(Cc2ccc3c(c2)OCO3)C(=O)C1	19.1	-3.0%
70	Cc1cccc(NS(=O)(=O)c2ccc(C(=O)NCC(C)(C)N3CCOCC3)cc2)c1C	nt	11.4%
71	Cc1ccc(C2=NNC(c3ccc(Cl)cc3)=Nc3ccccc32)o1	-3.1	-16.1%
72	Cc1ccc(-c2nn(-c3ccccc3)cc2/C=C/C(=O)OCC(=O)NC2CC2)o1	13.9	4.1%

no.	Rango dissoc inh	Rango-impB inh
65	1.5%	0.8%
66	8.4%	-1.2%
67	nt	nt
68	24.1%	-1.0%
69	-0.1%	0.5%
70	10.6%	-1.3%
71	-0.6%	-0.4%
72	-2.0%	?

# Compound activity (PubChem BioAssay)
